HIV Env fusion = inhibitors of HIV-1 Env-driven cell-cell fusion, primary screen, HeLa-JRFL effector, CEM21 target cells, luciferase | inhibition, % at 12.3 µM | actives 1.1% (n = 360,000) | AID 651610, 2012;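 active = mean replicate inhibition score of at least 50 and every replicate individually at or above 50; inconclusive = only one of the two criteria met; inactive = mean below 50 and not all replicates reaching 50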;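 note: 0% = plate neutral controls and 100% = maraviroc near 300 nM; one replicate is shown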
UUG fidelity = modulators of yeast start codon fidelity, primary screen, whole organism, S. cerevisiae, single point, plate reader; actives 0.13% (n = 350,000); AID 602363, 2012; activity score, % at 18.7 µM; S. cerevisiae UUG-firefly luciferase reporter, luminescence/redox ratio;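 active = replicate mean at a twofold rise or more, about +100% in these data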;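 note: firefly luciferase made from a UUG start codon reports start codon fidelity; reporter light over untreated wells divided by growth signal over untreated wells; some hits fall short of that in this replicate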
MT1-MMP act inh = blockers of MT1-MMP proenzyme processing, primary screen, HT1080 RFP-PRO-GFP cells, GFP/RFP fluorescence; Matrix metalloproteinase-14 (Homo sapiens), P50281; GFP/RFP ratio fluorescence, overnight; percent of plate control window, DMSO zero; GFP/RFP ratio change, % at 20 µM; actives 0.061% (n = 360,000); AID 651647, 2012;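 active = GFP/RFP ratio change of at least 30% with cell ATP level not reduced by more than half and red fluorescence within 50% of control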; note: strong numbers were not always called active
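Assay system: RFP-PRO-GFP reporter HT1080 cells; read-out basis: GFP/RFP fluorescence ratio; benchmarks: DMSO wells and RFP-L50D-GFP cells; doses: 20 µM single dose, 1% DMSO; schedule: overnight cell settling, then overnight compound exposure, 37 °C, 5% CO2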
eIF4H inh = human eIF4H binding inhibitors, primary screen, translation initiation inhibitor project, biochemical, uHTS, fluorescence polarization | Eukaryotic translation initiation factor 4H (Homo sapiens), Q15056 | inhibition, % at 35 µM | actives 0.94% (n = 290,000) | eIF4H fluorescence polarization binding assay;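 active = 50% or more with normal probe brightness, or confirmed in later tests; inconclusive = above 50% with abnormal brightness, or retests that disagree; inactive = below 50% or failed in later tests; about a fifth of its hits are not listed in these tables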;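 note: calls also rest on retests at 20 µM and on dose response follow-up; 0% = protein and probe with vehicle and 100% = probe without protein; strong numbers were not always called active; many hits fall short of the cut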
Rce1 inh = yeast Rce1p protease inhibitors, primary screen, biochemical, fluorescence, cell-free homogeneous. AID 2563, 2010. calls only. CAAX prenyl protease 2 (Saccharomyces cerevisiae (strain ATCC 204508 / S288c)), Q03530. actives 0.27% (n = 290,000). yeast membranes, quenched prenylated peptide cleavage fluorescence;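 active = fall in fluorescence gain of 50% or more versus controls, with final raw signal at or below 3038400; inconclusive = same 50% fall but final raw signal above 3038400; inactive = fall in fluorescence gain under 50%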;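 note: plate controls were neutral control wells for no effect and wells lacking membranes for full effect; tested at 10 µM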
Target sequence (Q03530 whole entry, looked up): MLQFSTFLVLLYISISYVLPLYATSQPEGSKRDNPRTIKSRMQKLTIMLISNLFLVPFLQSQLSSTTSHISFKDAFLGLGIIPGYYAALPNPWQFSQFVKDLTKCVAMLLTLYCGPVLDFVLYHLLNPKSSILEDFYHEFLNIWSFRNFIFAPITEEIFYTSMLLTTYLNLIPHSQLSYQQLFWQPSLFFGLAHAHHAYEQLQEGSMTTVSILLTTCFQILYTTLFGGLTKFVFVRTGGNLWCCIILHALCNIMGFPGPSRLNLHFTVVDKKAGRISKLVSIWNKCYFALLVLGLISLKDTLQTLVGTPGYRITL
CSC inhib = cancer stem cell viability inhibitors, primary screen, luminescence | cancer stem cell-like cells viability | inhibition, % at 7.5 µM | actives 1.1% (n = 300,000) | AID 2717, 2010;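 active = mean at 75% or more and at least half the replicates too; inconclusive = mean and replicates disagree; tested in HMLE shEcad cells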;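 note: 0% = median of negative and 100% = median of positive control wells; the first replicate is given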
PABP FP inh = PABP poly(A) RNA binding inhibitors, primary screen, biochemical, fluorescence polarization, uHTS | Polyadenylate-binding protein 1 (Homo sapiens), P11940 | inhibition, % at 35 µM | actives 1% (n = 290,000);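 active = 50% or more with normal probe brightness, or confirmed in later tests; inconclusive = above 50% with abnormal brightness, or retests that disagree; inactive = below 50% or failed in later tests; about a fifth of its hits are not listed in these tables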;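 note: calls also rest on retests at 20 µM and on dose response follow-up; controls were probe without protein and protein plus probe with vehicle; some compounds called inactive have numbers as strong as hits; many hits fall short of the cut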
eIF4H inh retest = further read-out of eIF4H inh, marked with its call; inhibition, %; compound at 20 µM; confirmation average;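 mean of two retest wells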
PABP FP inh retest = further read-out of PABP FP inh, marked with its call; inhibition, %; compound at 20 µM; confirmation repeats;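 mean of two retest wells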
MT1-MMP act inh RFP = also measured in MT1-MMP act inh; calls as there; RFP signal change, %; measured here: RFP expression control read;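 0 = vehicle wells; hits needed this value within 50% of zero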
The depositor's hits bear a star; i = inactive; ? = inconclusive; nt = not tested or not shown.

SMILES	HIV Env fusion	UUG fidelity	MT1-MMP act inh	MT1-MMP act inh RFP	eIF4H inh	Rce1 inh	CSC inhib	PABP FP inh	others
Cc1cc(C)c(S(=O)(=O)c2ccc(Cl)cc2C)c(Cl)n1	-13	nt	-2	3	9	i	-2	-1
COc1cc(SC)ccc1C(=O)N1CCN(Cc2ccccc2)CC1	14	nt	0	-2	5	i	-10	1
CCCN(C(=O)/C=C/c1nc2ccccc2s1)C1CCS(=O)(=O)C1 (stereo unspecified)	-1	4	-6	-2	nt	nt	nt	nt
S=c1[nH]nc(COc2cccc(Cl)c2)n1Cc1ccccc1	17	-19	5	2	-12	i	-3	-8
COc1cccc(-c2c(C(=O)N/N=C/c3ccncc3)nnn2-c2nonc2N)c1	12	-18	-8	1	-12	i	-21	-5
CCCCn1nc(C(=O)Nc2cc(C(F)(F)F)ccc2N2CCOCC2)ccc1=O	27	-8	-7	-7	nt	nt	8	nt
Cc1ccccc1-c1nnc(SCC(=O)Nc2ccc(Cl)cc2)n1N	-40	-13	-4	-9	-1	i	13	3
Nc1cc(Cl)nc(N/N=C/c2ccccc2[N+](=O)[O-])n1	nt	-17	2	5	-4	i	0	-4
COc1cc(NC2c3ccccc3C(=O)N2Cc2ccccc2Cl)cc(OC)c1 (stereo unspecified)	65*	-26	-8	-8	-17	i	nt	4
CC(=O)c1ccc(-c2ccc(C(=O)Nc3nc(-c4ccccn4)cs3)o2)cc1	8	-20	7	6	nt	nt	26	nt
CCOC(=O)c1sc(NC(=O)CSc2n[nH]c(-c3ccncc3)n2)c(C#N)c1C	10	-10	0	-31	-5	i	1	3
Cc1ccccc1C(=O)/C(C#N)=N/Nc1c(C)n(C)n(-c2ccccc2)c1=O	46	-22	-7	-6	25	i	17	6
O=C(COC(=O)c1ccc[nH]c1=O)Nc1ccc(N2CCCCC2)cc1	62*	-2	5	6	nt	nt	0	nt
COc1ccc(-c2noc(CCC(=O)NCc3cccnc3)n2)cc1	-82	-13	2	-3	-8	i	-13	1
COc1ccc2c(c1OC)C(=O)OC2CC(=O)O (stereo unspecified)	-29	-1	3	2	-3	nt	3	-1
CCC(CO)Nc1ccn2nc(-c3cccs3)cc2n1 (stereo unspecified)	-71	-13	-2	0	nt	nt	nt	nt
Cc1ccc(C)c(CN2CCC(CNC(=O)Nc3ccc(C)c(F)c3)CC2)c1	21	9	-1	-7	-1	i	21	-1
Cc1ccc(NS(=O)(=O)c2ccc(-c3coc(C)n3)cc2)c(Br)c1	-2	-9	0	-1	-5	i	-11	2
COc1ccccc1N(CC(=O)N/N=C(\C)c1cccc(Br)c1)S(C)(=O)=O	6	nt	3	0	-6	i	1	4
COc1ccc(C(=O)N/C=C/n2cnc3cc(C(F)(F)F)ccc32)cc1	-4	-22	-1	-5	-3	i	3	-13
COc1ccc(Nc2nnc(C)c3ccccc23)cc1	8	1	3	6	-7	i	-9	2
COc1cccc(C(=O)N2CCSC2=S)c1	nt	9	6	12	-11	i	9	-8
CC(C)CC(=O)Nc1ccc(S(=O)(=O)Nc2nccs2)cc1	3	-18	3	4	-4	i	-2	-7
Cc1ccc(C)c(NC(=S)N2CCC(NC(=O)c3cccc(F)c3)CC2)c1	9	-14	1	-2	-1	i	nt	3

10 entries already listed, arranged by length of the SMILES, highest first:
SMILES	HIV Env fusion	UUG fidelity	MT1-MMP act inh	MT1-MMP act inh RFP	eIF4H inh	Rce1 inh	CSC inhib	PABP FP inh	others
CCOC(=O)c1sc(NC(=O)CSc2n[nH]c(-c3ccncc3)n2)c(C#N)c1C	10	-10	0	-31	-5	i	1	3
Cc1ccccc1C(=O)/C(C#N)=N/Nc1c(C)n(C)n(-c2ccccc2)c1=O	46	-22	-7	-6	25	i	17	6
CC(=O)c1ccc(-c2ccc(C(=O)Nc3nc(-c4ccccn4)cs3)o2)cc1	8	-20	7	6	nt	nt	26	nt
Cc1ccc(C)c(CN2CCC(CNC(=O)Nc3ccc(C)c(F)c3)CC2)c1	21	9	-1	-7	-1	i	21	-1
COc1ccc(C(=O)N/C=C/n2cnc3cc(C(F)(F)F)ccc32)cc1	-4	-22	-1	-5	-3	i	3	-13
O=C(COC(=O)c1ccc[nH]c1=O)Nc1ccc(N2CCCCC2)cc1	62*	-2	5	6	nt	nt	0	nt
COc1ccc(-c2noc(CCC(=O)NCc3cccnc3)n2)cc1	-82	-13	2	-3	-8	i	-13	1
CCC(CO)Nc1ccn2nc(-c3cccs3)cc2n1 (stereo unspecified)	-71	-13	-2	0	nt	nt	nt	nt
COc1ccc2c(c1OC)C(=O)OC2CC(=O)O (stereo unspecified)	-29	-1	3	2	-3	nt	3	-1
COc1cccc(C(=O)N2CCSC2=S)c1	nt	9	6	12	-11	i	9	-8

New compounds follow:
SMILES	HIV Env fusion	UUG fidelity	MT1-MMP act inh	MT1-MMP act inh RFP	eIF4H inh	Rce1 inh	CSC inhib	PABP FP inh	others
C(CNC1C2CC3CC(C2)CC1C3)CN1CCOCC1 (stereo unspecified)	5	-23	2	2	2	i	25	2
COc1ccc(Br)cc1/C=N/NS(=O)(=O)c1ccccc1	5	-23	2	2	nt	nt	nt	nt
CCOC(=O)C1CCCN(c2c(N3CCN(C)CC3)c(=O)c2=O)C1 (stereo unspecified)	-4	-25	3	2	-10	i	1	-11
Cc1ccc(NC(=O)/C(=C\C=C\c2ccccc2)NC(=O)c2ccccc2)cc1	nt	-11	-2	-10	3	i	-24	0
COc1ccc(CCNC(=O)CSc2nc3[nH]ncc3c(=O)n2-c2cccc(C(F)(F)F)c2)cc1OC	-13	nt	-2	3	-2	i	-2	0
Nc1nc2ccccc2n1C(=O)CCc1ccccc1	-345	-16	4	-13	-2	i	47	-5
O=C(O)C1CC(C(=O)O)SS1 (stereo unspecified)	7	-2	-2	3	nt	nt	nt	nt
Cc1c(C(=O)N2CCOCC2)oc2ccc(S(=O)(=O)N3CCCCCC3)cc12	?	-8	-3	-2	-7	i	-5	-14
O=C(CNCc1ccc(Cl)cc1)N1CCc2ccccc2C1	2	-16	0	-3	11	i	-7	12
C1CCc2nc3c(nc2C1)CCCC3	nt	-13	-1	6	-12	i	-16	9
CCOc1cc(NC(=S)NCC2CCCO2)c(OCC)cc1NC(=O)c1ccc(F)cc1 (stereo unspecified)	-13	-22	3	-4	6	i	2	-4
CCCCn1c(CN(Cc2ccccc2)Cc2ccccc2)nc2c1c(=O)n(C)c(=O)n2C	nt	8	-16	-22	nt	i	18	nt
C=CCc1cc(Cl)ccc1OCCOCCNC(C)CC (stereo unspecified)	10	-6	-7	-2	2	i	131*	2
CCCC(=O)c1ccc(N2CCCCCC2)c(F)c1	nt	-1	-1	-1	-11	i	22	0
COc1ccc2cc3cc(C(=O)N4CCCC(C)C4)oc3nc2c1 (stereo unspecified)	-218	-21	-4	-2	-12	i	10	0
COc1ccc(-c2ccc3c(c2)c(C#Cc2ccsc2)c(-c2cc(OC)cc(OC)c2)n3C)cc1	-51	-17	-4	1	nt	nt	8	nt
S=C(Nc1ccc2cn[nH]c2c1)Nc1ccccc1Cl	-29	nt	0	-2	16	i	-3	1
Cc1noc(C)c1C(=O)OC(C(=O)NC1CCCC1)c1ccc(F)cc1 (stereo unspecified)	nt	nt	4	5	-8	i	-6	-10
CCCN(CCC)C(=O)Cn1c(=O)n(CCCCC(=O)NCc2ccco2)c(=O)c2ccccc21	nt	-8	0	-2	-7	i	-4	4
Cc1ccccc1NC(=O)c1sc2nc3c(c(-c4ccco4)c2c1N)CCC3	nt	-18	-39	-3	88*	i	-12	58*	eIF4H inh retest=99*;PABP FP inh retest=92*
COc1nc(N)nc(N)c1NS(=O)(=O)c1ccc(C)cc1	-15	-9	1	-2	-17	nt	-12	-6
Cc1ccnn2c(-c3ccccc3)c3c(=O)n(C)c(=O)n(C)c3c12	nt	nt	nt	nt	-4	i	nt	7
CCOc1ccccc1CNC(=O)C(C)n1nc(C)c2c(C)n(-c3ccccc3)nc2c1=O (stereo unspecified)	0	4	0	-28	-2	i	3	3
CC(=O)Nc1cccc(-c2csc(C(NC(C)=O)c3ccc(F)c(F)c3)n2)c1 (stereo unspecified)	0	-11	1	3	nt	nt	nt	nt

The list goes on (2 carried over from the part before).
SMILES	HIV Env fusion	UUG fidelity	MT1-MMP act inh	MT1-MMP act inh RFP	eIF4H inh	Rce1 inh	CSC inhib	PABP FP inh	others
CCOc1ccccc1CNC(=O)C(C)n1nc(C)c2c(C)n(-c3ccccc3)nc2c1=O (stereo unspecified)	0	4	0	-28	-2	i	3	3
CC(=O)Nc1cccc(-c2csc(C(NC(C)=O)c3ccc(F)c(F)c3)n2)c1 (stereo unspecified)	0	-11	1	3	nt	nt	nt	nt
Cn1nc(C(C)(C)C)c(NC(=O)c2cccs2)c1C(C)(C)C	23	-7	2	0	-8	i	-5	-10
CC(C)c1ccc(NC(=O)c2cc([N+](=O)[O-])ccc2N2CCOCC2)cc1	-12	-9	-1	-3	-3	i	-11	35
O=S(=O)(c1ccc(N2CCN(Cc3ccc4c(c3)OCO4)CC2)nc1)N1CCOCC1	-3	nt	nt	nt	-13	i	-2	1
CC1CCN(S(=O)(=O)c2ccc(NC(=O)Cc3cccs3)cc2)CC1	-30	nt	0	-2	6	i	19	8
O=C(O)c1cccc(Cn2c(Cl)c(/C=N/NC(=O)c3ccc(O)cc3)sc2=O)c1	-45	-10	0	3	2	i	-13	14
CCCCNC(=O)Nc1ccccn1	nt	-13	-3	2	-5	i	-2	3
CC(C)COc1ccc(C(=O)OCCN2CCOCC2)c(O)c1	nt	-5	2	1	-2	i	13	1
COc1ccc(S(=O)(=O)N2CCCCCC2)cc1C(=O)OCC(=O)NC(N)=O	nt	-16	0	1	6	i	5	5
CC1CN(Cc2nc3c(c(=O)n(C)c(=O)n3C)n2CCc2ccccc2)CC(C)O1 (stereo unspecified)	nt	-6	0	4	nt	i	-10	nt
COCCCNC(=O)CCNS(=O)(=O)c1ccc(C)cc1	-19	-29	-1	5	-4	nt	-3	-10
c1ccc(SCCCCNC2CCCC2)cc1	8	nt	-1	0	6	i	1	-4
COc1cc(/C=C/C(=O)OCC(=O)Nc2cc(S(=O)(=O)N3CCCC3)ccc2Cl)cc(OC)c1OC	39	-10	4	-3	nt	nt	-16	nt
Cc1ccc(NC(C)C(=O)N/N=C/c2ccc([N+](=O)[O-])s2)cc1 (stereo unspecified)	15	-13	1	-9	-1	i	0	0
COc1ccc(CN(C)Cc2cc(=O)oc3cc(C)c(C(C)C)cc23)cc1OC	12	-10	-3	-3	2	i	3	0
Cc1cc(C)nc(SC(C)C(=O)N/N=C/c2cccs2)n1 (stereo unspecified)	nt	-12	8	2	9	i	1	5
COc1ccccc1N(CC(=O)NC1CCCCC1)C(=O)Cn1nnc(-c2ccc(C)o2)n1	19	48	0	0	-4	i	nt	8

Screens from PubChem.
